GALR2 ag: agonists of human galanin receptor 2 (GALR2). GALR2-expressing cells, agonist activation read-out. activation, %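 (tested at 5 µM)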. 140,000 compounds, 0.48% hits. AID 803;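 active = above mean plus 3 SD of all compounds, about 5% in these data, not always enough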;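 note: 0% = vehicle buffer wells and 100% = reference agonist at full effect; tested in CHO reporter cells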
Target sequence (O43603 whole entry, looked up): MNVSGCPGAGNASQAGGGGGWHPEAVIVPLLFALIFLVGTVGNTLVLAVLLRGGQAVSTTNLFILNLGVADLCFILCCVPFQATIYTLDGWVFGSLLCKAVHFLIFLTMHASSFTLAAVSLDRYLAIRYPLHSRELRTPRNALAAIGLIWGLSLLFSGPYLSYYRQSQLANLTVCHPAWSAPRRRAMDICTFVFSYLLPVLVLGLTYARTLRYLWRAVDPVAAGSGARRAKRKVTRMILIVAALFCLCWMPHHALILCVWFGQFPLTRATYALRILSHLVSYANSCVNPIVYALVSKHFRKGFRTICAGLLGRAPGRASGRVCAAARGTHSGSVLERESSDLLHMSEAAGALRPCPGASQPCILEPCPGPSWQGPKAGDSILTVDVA
PKD1 inh: blocks activity of human protein kinase D1; PKD1 kinase fluorescence polarization assay; 200,000 compounds, 0.056% hits; inhibition, %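 (about 10 µM by stock and volumes)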; Q15139;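 active = inhibition of 50% or more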;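 note: controls were vehicle for no effect and a reference inhibitor for full effect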
HSV augment: increases HSV replication in cells. HSV replication augmentation in cells, fold increase. maximum fold increase. 220,000 compounds, 0.005% hits;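 active = peak rise of 1.5-fold or more in the series; tested in PC3 cells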;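 note: first round at 10 µM; read as green reporter fluorescence; hits show the peak of a series up to 25 µM; 1 = signal of infected wells without compound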
RGS16-Gao HTS: modulates binding between human RGS16 and Galphao; O15492+P09471; bead-based flow cytometry RGS16-Galphao binding, fluorescence; actives lie on both sides; binding response (% of control), % at 10 µM; 220,000 compounds, 0.38% hits; AID 1441;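 active = below 25% or above 175%, edge rows of some plates excepted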;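 note: Galphao activated by GDP with aluminum fluoride before binding; 100% = wells without compound and 0% = beads without RGS; some results beyond the cut were filed as inactive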
Target sequence (O15492 whole entry, looked up): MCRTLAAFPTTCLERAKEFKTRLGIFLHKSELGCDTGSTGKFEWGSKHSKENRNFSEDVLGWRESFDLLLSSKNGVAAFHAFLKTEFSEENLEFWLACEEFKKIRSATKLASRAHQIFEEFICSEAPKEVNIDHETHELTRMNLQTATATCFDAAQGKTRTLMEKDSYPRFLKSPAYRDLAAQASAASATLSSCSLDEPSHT
Target sequence (P09471 whole entry, looked up): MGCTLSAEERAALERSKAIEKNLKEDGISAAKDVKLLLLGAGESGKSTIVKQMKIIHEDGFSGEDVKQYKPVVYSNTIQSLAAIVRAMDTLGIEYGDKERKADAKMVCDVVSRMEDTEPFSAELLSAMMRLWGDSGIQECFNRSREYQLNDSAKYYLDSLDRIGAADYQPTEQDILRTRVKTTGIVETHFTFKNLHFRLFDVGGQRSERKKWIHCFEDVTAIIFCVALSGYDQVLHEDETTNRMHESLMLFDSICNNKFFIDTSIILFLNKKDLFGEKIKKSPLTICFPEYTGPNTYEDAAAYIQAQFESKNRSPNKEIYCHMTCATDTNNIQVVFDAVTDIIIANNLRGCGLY
INS promoter inh: TRM-6 insulin promoter activity inhibition | TRM-6 cells (human fetal islet line), insulin promoter-eGFP reporter, imaging; reporter expression induced with tamoxifen | inhibition, % at 2 µM | 130,000 compounds, 0.9% hits | AID 1273;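 active = inhibition above the mean plus 3 SD, with well images judged a real hit on visual review, cut at about 60% in these data, passing the limit was not always enough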
INS promoter inh cell count: also measured in INS promoter inh; calls as there; normalized cell count, %; measured here: cell count, toxicity; reference of the scale not given here;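 cells exposed to compound for 48 h; stained nuclei by imaging scaled within each plate; lower means fewer cells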
HSV augment primary fold: further read-out of HSV augment, marked with its call; fold increase; compound at 10 µM; measured here: primary screen fold increase 10 uM; tested in PC3 cells;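 GFP signal in the first replicate; 1 = infected wells without compound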
Numbers without * were called inactive; i = inactive; nt = not tested or not shown.

A first look:
SMILES | GALR2 ag | PKD1 inh | HSV augment | HSV augment primary fold | RGS16-Gao HTS | INS promoter inh | INS promoter inh cell count
O=C(CN1CCN(c2ccccc2)CC1)c1ccc2cc[nH]c2c1 | -2.6 | -4 | i | 0.84 | 99 | nt | nt
CC(C)Nc1nc(SCC(N)=O)nc(N2CCOCC2)n1 | -1.3 | 4 | i | 1 | 99 | 27 | 142
O=C(COc1ccccc1)OCc1cc2ccccc2[nH]c1=O | -1.6 | -5 | i | 0.85 | 101 | 21 | 152
Cc1cc(C)c2[nH]c(=O)c(CN(Cc3nnnn3C3CCCC3)C3CCCCC3)cc2c1 | 0.4 | 10 | i | 0.98 | 100 | nt | nt
Cc1cccc(C)c1C(=O)N[C@@H](Cc1ccccc1)C(=O)O | nt | -3 | i | 1.2 | 87 | nt | nt

The listing, from the first entry:
SMILES | GALR2 ag | PKD1 inh | HSV augment | HSV augment primary fold | RGS16-Gao HTS | INS promoter inh | INS promoter inh cell count
O=C(CN1CCN(c2ccccc2)CC1)c1ccc2cc[nH]c2c1 | -2.6 | -4 | i | 0.84 | 99 | nt | nt
CC(C)Nc1nc(SCC(N)=O)nc(N2CCOCC2)n1 | -1.3 | 4 | i | 1 | 99 | 27 | 142
O=C(COc1ccccc1)OCc1cc2ccccc2[nH]c1=O | -1.6 | -5 | i | 0.85 | 101 | 21 | 152
Cc1cc(C)c2[nH]c(=O)c(CN(Cc3nnnn3C3CCCC3)C3CCCCC3)cc2c1 | 0.4 | 10 | i | 0.98 | 100 | nt | nt
Cc1cccc(C)c1C(=O)N[C@@H](Cc1ccccc1)C(=O)O | nt | -3 | i | 1.2 | 87 | nt | nt
O=C(Cc1ccc(F)cc1)NCCc1ccccc1 | -0.1 | -2 | i | 0.82 | 97 | -19 | 113
CCOC(=O)CSc1ccc2nnc(CCNS(=O)(=O)c3ccc(C)cc3)n2n1 | nt | 3 | i | 0.91 | 94 | nt | nt
Cc1ccc(C)c(S(=O)(=O)NCc2ccc(C(=O)NCc3ccccn3)cc2)c1 | -1.7 | 0 | i | 1.1 | 103 | 26 | 77
CCCCn1c(CNC(=O)C23CC4CC(CC(C4)C2)C3)nnc1SC(C)CC (configuration not stated) | -1.2 | -8 | i | 1 | 102 | nt | nt
O=C(Nc1cccc2ccccc12)OC1C=CS(=O)(=O)C1 (configuration not stated) | -0.8 | -4 | i | 0.59 | 111 | 54 | 110
C/C(CCc1ccccc1)=N\NC(=O)C1C2CCCCC21 (configuration not stated) | nt | 3 | i | 0.93 | 89 | nt | nt
COc1cc(C2CC(=O)OC3=C2C(=O)CC(C)(C)C3)cc(OC)c1OC (configuration not stated) | nt | -2 | i | 0.86 | 108 | nt | nt
CC1CC(C)CN(C(=O)c2cc3c(s2)CCC3)C1 (configuration not stated) | -1.8 | 9 | i | 1.1 | 105 | 30 | 53
COc1ccc(N/C=C\C(=O)c2ccc(C)cc2)cc1OC | nt | -3 | i | 1.2 | 98 | nt | nt
S=C(NCCc1ccccc1)NC1CC1 | 0.0 | -10 | i | 1 | 58 | -27 | 95
O=C(Nc1nnc(SCc2ccccc2)s1)c1cccs1 | -1.2 | 0 | i | 1.1 | 99 | 1 | 131
COC(=O)/C=C/S(=O)(=O)c1ccc(NC(C)=O)cc1 | -2.8 | -4 | i | 0.78 | 96 | -50 | 100
CCNC(=O)Cn1cnc2c1c(=O)n(C)c(=O)n2C | -0.7 | -1 | i | 0.99 | 103 | -32 | 197
CC(C)C(NC(=O)c1ccccc1F)C(=O)Nc1ccc2c(c1)OCO2 (configuration not stated) | nt | -1 | i | 0.93 | 103 | nt | nt
NS(=O)(=O)c1ccc(NC2=CC(c3ccc(F)cc3)N(c3ccc(S(N)(=O)=O)cc3)C2=O)cc1 (configuration not stated) | nt | nt | i | 1.1 | 130 | nt | nt
COc1ccc(N(CC(=O)NCCC2=CCCCC2)S(=O)(=O)c2ccc(C)cc2)cc1OC | nt | 1 | i | 0.91 | 96 | -22 | 52
CCOC(=O)/C(C(=O)Nc1ccc(Br)cc1)=C1/NC(C)(C)Cc2ccccc21 | 0.2 | -4 | i | 1 | 100 | -23 | 111
CCC(=O)Nc1c(C(=O)Nc2ccc3c(c2)OCCO3)oc2ccccc12 | nt | -2 | i | 0.85 | 113 | 9 | 62
O=CN(Cc1ccco1)C1(C(=O)NC2CCCCC2)CCCCC1 | -1.6 | -4 | i | 0.91 | 99 | 41 | 60
Cn1c(SCC(=O)N/N=C/C=C\c2ccccc2[N+](=O)[O-])nc2ccccc21 | -1.3 | -11 | i | 0.83 | 23* | 13 | 113
CC1CCN(c2cc(N3CCC(C)CC3)c([N+](=O)[O-])cc2/C=C(\C#N)c2nn(-c3ccccc3)c(N)c2C#N)CC1 | -2.6 | -6 | nt | nt | 102 | 4 | 117
O=C(/C=C/c1c(Cl)cccc1Cl)n1cccn1 | -3.9 | -6 | i | 0.83 | 96 | 0 | 159
CC(=O)NC1(C(F)(F)F)NC(=O)N(CC(C)C)C1=O (configuration not stated) | -0.9 | -4 | i | 1 | 100 | -136 | 173
COc1ccc(/C=N/OCC(=O)Nn2c(C)nc3ccccc3c2=O)cc1 | -1.2 | 1 | i | 0.95 | 41 | -14 | 117
CC(C)OC(=O)c1c(NC(=O)CCn2nnc3ccccc32)sc2c1CCCC2 | -1.3 | -3 | i | 0.83 | 101 | nt | nt
COc1cnc(-c2ccccn2)nc1Oc1ccc(Cl)c2ccccc12 | -1.4 | -3 | nt | nt | 97 | nt | nt
CCn1c2ccccc2c2cc(NC(=O)c3ccc(C)c([N+](=O)[O-])c3)ccc21 | -0.1 | -5 | i | 0.62 | 109 | -13 | 100
CNc1ccc(S(=O)(=O)NC)cc1[N+](=O)[O-] | nt | 5 | i | 0.94 | 101 | nt | nt
Nc1c(C(=O)N/N=C/c2cccnc2)oc2nc(-c3ccco3)cc(-c3ccco3)c12 | nt | nt | i | 1.3 | 95 | nt | nt
COc1ccc(C(=O)NCC(=O)OCC(=O)NC(=O)NC2CCCCC2)cc1OC | -2.8 | -9 | i | 1 | 103 | nt | nt
COC(=O)c1ccc(CN2CCN(CCC(C)C)C(CCO)C2)cc1 (configuration not stated) | nt | 1 | i | 0.98 | 92 | 17 | 171
CC1=CC(C)(C)[N+](C)(C)c2ccccc21 | nt | -3 | i | 0.96 | 104 | nt | nt
CC(C)Cn1c(=O)c2c(c3ccccc31)OC(C)C(=O)N2 (configuration not stated) | -0.8 | -4 | i | 1 | 105 | 17 | 74
CCN(CC)c1ccc(C=C2C(=O)OC3(CCCCC3)OC2=O)cc1 | nt | -1 | i | 0.95 | 99 | -44 | 158
O=c1[nH]c2ccc(NC(=S)NC3CCCCC3)cc2[nH]1 | nt | -1 | i | 1 | 101 | -12 | 109
Cc1nc2ccccc2c2oc(C(=O)N3CCN(C(=O)c4ccco4)CC3)cc12 | -1.8 | 3 | i | 1.1 | 74 | 10 | 131
O=C(O)c1cc(-c2ccccc2)n[nH]1 | -1.1 | 8 | i | 1 | 102 | 24 | 203
COc1ncnc2c1oc1ccccc12 | nt | 9 | i | 1.1 | 138 | 21 | 88
O=C(C1CCN(CCCc2ccccc2)CC1)N1CCCCC1 | -2.2 | -2 | i | 0.99 | 104 | nt | nt
COC(=O)c1ccn(-c2nc(-c3ccco3)cc(C(F)(F)F)n2)n1 | 0.4 | 0 | i | 0.9 | 102 | 41 | 76
COCCN1C(=O)c2ccc(C(=O)NCc3cccnc3)cc2C1=O | -1.8 | 0 | i | 0.9 | 102 | 32 | 146
COc1ccc(OCCCn2cccc2/C=C2/C(=N)N3OC(C)=CC3=NC2=O)cc1 | nt | -7 | i | 0.9 | 105 | 20 | 131
COc1cc(NC(=S)NCCC(c2ccccc2)c2ccccc2)cc(OC)c1 | -1.1 | 3 | i | 0.96 | 100 | 19 | 132
C/C(=N/OC(=O)c1ccc(F)cc1)c1ccc(C)cc1 | -1.8 | -12 | i | 1.1 | 103 | 0 | 72
COc1ccc(-n2nnnc2SCC(=O)Nc2cccc(C)n2)cc1OC | -1.6 | -9 | i | 0.91 | 91 | -21 | 78

Later entries.
SMILES | GALR2 ag | PKD1 inh | HSV augment | HSV augment primary fold | RGS16-Gao HTS | INS promoter inh | INS promoter inh cell count
CCN(CC)C(=S)NC(=O)c1ccc(OC)c(Br)c1 | -0.8 | 1 | i | 0.86 | 159 | 7 | 114
COc1ccccc1Nc1c2c(nc3ccc(N)cc13)CCCC2 | nt | nt | i | 0.86 | 95 | nt | nt
COc1cc(O)c2c(c1)OC(C)(C)CC2=O | -3.4 | 3 | i | 0.8 | -53 | -45 | 55
CCCn1nc2cc(C(=O)N(CC)c3ccc(OC)cc3)ccc2c1OCC | -2.2 | 1 | i | 0.76 | 101 | nt | nt
Cc1c(S(=O)(=O)N2CCOCC2)c(=O)n(C)c(=O)n1C | -2.1 | -2 | i | 0.96 | 113 | nt | nt
N/C(=N\OC(=O)c1cccc(Br)c1)c1ccc(Br)cc1 | -0.7 | -6 | i | 1.1 | 113 | 0 | 116
O=C1CC(C(=O)N2CCOCC2)C2(CCCC2)O1 (configuration not stated) | 0.1 | -10 | i | 1.1 | 103 | -9 | 130
O=C(NC(CC(=O)N1CCN(c2ccc([N+](=O)[O-])cc2)CC1)c1ccccc1)c1ccccc1Cl (configuration not stated) | 0.5 | -9 | i | 0.97 | 114 | 39 | 133
CCN(CC)S(=O)(=O)c1ccc(S(=O)(=O)Nc2cc3c(cc2C(C)=O)OCO3)cc1 | -3.5 | -8 | i | 0.91 | 100 | 29 | 148
CCCCN(CCCNc1ncnc2nc[nH]c12)c1ccccc1 | -2.1 | -12 | i | 0.8 | 107 | -40 | 89
COc1cccc(CNCCN2CCOCC2)c1OC | -1.3 | 7 | i | 0.97 | 129 | nt | nt
CCn1cc(/C=N/NC(=O)c2ccc3c(c2)OCO3)cn1 | -0.9 | 1 | i | 0.98 | 96 | 6 | 115
O=C(COC(=O)Cc1ccc(Cl)cc1Cl)Nc1ccc(OC(F)F)cc1 | -0.7 | -14 | i | 0.94 | 77 | 12 | 66
COc1ccc(C(=O)NCCCc2nc3ccccc3n2Cc2ccccc2C)cc1OC | -1.2 | -16 | i | 0.89 | nt | -24 | 60
COc1ccc(NC(=O)CN2CCc3ccccc3C2)cc1S(=O)(=O)N1CCOCC1 | 0.5 | -4 | i | 0.88 | 107 | 14 | 124
COc1ccccc1NC(=O)C1=C(C)Nc2ncnn2C1c1cccs1 (configuration not stated) | -0.5 | 2 | i | 0.93 | 80 | 12 | 136
Cn1c(C(=O)NCCCN2CCN(c3cccc(Cl)c3)CC2)cc2c(=O)n(C)c3ccccc3c21 | 0.4 | -17 | i | 1.1 | 135 | nt | nt
Cc1cc(C)c2[nH]c(=O)c(CN(Cc3ccco3)C(=O)c3cccs3)cc2c1 | -2.9 | 6 | i | 0.83 | 104 | 10 | 112
COC(=O)CN(c1ccccc1F)S(=O)(=O)c1ccc(C)cc1 | nt | 2 | i | 0.91 | 106 | 7 | 93
COC(=O)[C@@H]1CC[C@H](C)[C@@H](c2ccc(C)cc2)N1C(=O)c1ccc(/C=N/OC[C@@H](O)[C@H]2O[C@@H]3OC(C)(C)O[C@@H]3[C@H]2O)cc1 | 0.3 | -2 | nt | nt | 105 | -52 | 57
COC(=O)c1cc(OC)cc(O)c1C(=O)c1c(O)cc(C)cc1O | nt | nt | i | 1.1 | 96 | nt | nt
CCc1ccc(C2C(C#N)=C(N)SC(N)=C2C#N)s1 | -0.8 | -5 | i | 1.1 | 93 | -23 | 85
COc1ccc(/C(C)=N\O)cc1OC | nt | nt | i | 0.97 | 98 | nt | nt
Fc1ccc(N2CCN(c3ncnc4nc[nH]c34)CC2)cc1 | -1.5 | 9 | i | 0.87 | 108 | nt | nt
CC/C(C)=N/Nc1nc2sc3c(c2c(=O)[nH]1)CC(C)(C)OC3 | 25* | 2 | i | 0.84 | 105 | 17 | 131
Fc1ccccc1-c1n[nH]c(=S)n1CC1CCCO1 (configuration not stated) | nt | -10 | i | 1.1 | 102 | -10 | 94
CC1CN(S(=O)(=O)c2ccc(C(=O)NN3CCN(C)CC3)cc2)CC(C)O1 (configuration not stated) | -0.9 | -3 | i | 0.93 | 106 | -7 | 100
CC(NC(=O)Nc1ccc(F)cc1F)c1ccncc1 (configuration not stated) | -1.0 | 3 | i | 0.96 | 98 | 40 | 96
COCCNC(=S)Nc1cc(S(=O)(=O)N2CCOCC2)ccc1N1CCCCC1 | nt | -6 | i | 0.98 | 90 | -71 | 139
CC(C)C(=O)N(Cc1ccc(F)cc1)Cc1nc2ccccc2c(=O)[nH]1 | nt | 4 | i | 1.2 | 98 | 33 | 108

Screening data (PubChem BioAssay)

This is a random part of the collection; 1.3% or so of the library scored in one or more.
